Screening data deposited in PubChem BioAssay by Center for Chemical Genomics, University of Michigan.
HIV TAR-Tat = HIV-1 TAR-Tat binding disruption. HIV-1 TAR RNA, Tat peptide displacement FRET; hits give high values. z-score (concentration not given with the values). 100,000 compounds, 0.6% hits;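 note: score is relative to mean and SD of negative controls; some compounds called inactive have numbers as strong as hits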
CDC25B CDK2 inh = human CDC25B-CDK2/CyclinA binding inhibition; 94,000 compounds, 0.72% hits; z-score (concentration not given with the values); HTRF CDC25B-CDK2/CyclinA binding, anti-His/anti-Flag; hits give high values; P30305+P24941; AID 1259370;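 note: score is relative to mean and SD of negative controls; strong numbers were not always called active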
* marks the source's active call; other numbers are inactive results.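 Rule for the calls: active = z-score from 3 up in half or more of its runs; inactive = the rest.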 The order is random, and some 0.87% of all compounds hit somewhere here.

Screening CCN(CC)CC(C)CNC(=O)c1c(O)nc2ccccn2c1=O (stereo not drawn) returned HIV TAR-Tat 0.79 and CDC25B CDK2 inh -2.2.
Screening CCCNC(=O)NC1COc2ccccc2C1 (stereo not drawn) returned HIV TAR-Tat 1.1.
Screening CC1CCCN(S(=O)(=O)c2csc(C(N)=O)c2)C1 (stereo not drawn) returned HIV TAR-Tat -0.3.
c1ccc(-c2nnc3sc(-c4ccncc4)nn23)cc1 was read as CDC25B CDK2 inh -0.03.
Fc1ccccc1CNCCCSc1nnnn1-c1ccccc1 was read as HIV TAR-Tat 1.9 and CDC25B CDK2 inh -1.3.
For O=C(Nc1ccccc1)c1sc2ccccc2c1Cl the results were HIV TAR-Tat 2.5 and CDC25B CDK2 inh -0.68.
`CCCCn1nnc2c(sc3nc(C)cc(C)c32)c1=O` gave HIV TAR-Tat 1.7 and CDC25B CDK2 inh 1.3.
`CC1(C)CC2(CCCN(Cc3nc4c(c(=O)[nH]3)C3(CCCC3)Cc3ccccc3-4)C2)CCO1` (stereo not drawn) gave HIV TAR-Tat 0.65 and CDC25B CDK2 inh 0.54.
Screening CCOc1ccccc1CNS(=O)(=O)c1cnc[nH]1 returned HIV TAR-Tat 0.46.
`CC(=O)Nc1ccc(S(=O)(=O)[C@H]2CS(=O)(=O)C[C@@H]2NC2CCCCC2)cc1` gave HIV TAR-Tat -0.86 and CDC25B CDK2 inh -1.6.
For COC(=O)c1c(N)n(-c2cccc(Cl)c2)c2nc3ccccc3nc12 the results were CDC25B CDK2 inh -2.
`O=S(=O)(Nc1ccccc1)c1ccc(N2CCCCS2(=O)=O)cc1` gave HIV TAR-Tat 0.36.
COc1ccc2cc(CCNC(=O)CCC3CCCCC3)c(=O)[nH]c2c1 was read as CDC25B CDK2 inh -2.7.
COC(=O)c1c(C)oc(C)c1S(=O)(=O)Nc1ccccc1SCc1c(F)cccc1Cl was read as CDC25B CDK2 inh -0.63.
`COc1ccccc1-c1nnc(SCc2ccccc2Cl)o1` gave HIV TAR-Tat 2 and CDC25B CDK2 inh 2.
For CCCCNc1ncnc2c1nnn2C the results were HIV TAR-Tat 1.7.
COC(=O)c1ccc2nccnc2c1 was read as CDC25B CDK2 inh -0.17.
For CCOC(=O)C1Cn2c(nc3c(c2=O)C2(CCCCC2)Cc2ccccc2-3)S1 (stereo not drawn) the results were CDC25B CDK2 inh 0.7.
C(CC1CCNCC1)CC1CCNCC1 (tested in a mixture with another compound) was read as CDC25B CDK2 inh -1.8.
CCCCCCCC/C=C/CCCCCCCCOP(=O)([O-])OCC[N+](C)(C)C was read as HIV TAR-Tat 1.9.
COC(=O)C1=C(C)NC2=C(C(=O)CC(c3ccc(OC)c(OC)c3)C2)C1c1ccc2c(c1)OCO2 (stereo not drawn) was read as HIV TAR-Tat 0.47 and CDC25B CDK2 inh -2.3.
For Cc1c(Cl)cccc1-n1nnc(-c2nc(-c3ccc(F)cc3)no2)c1N the results were HIV TAR-Tat 2.
Screening COc1ccc(-c2noc(-c3cccs3)n2)cc1 returned HIV TAR-Tat 1.1 and CDC25B CDK2 inh -0.65.
`CCC(=O)N1CCc2cc(S(=O)(=O)CCC(=O)NCCC3=CCCCC3)ccc21` gave CDC25B CDK2 inh -1.8.
Screening O=C(CSC1=NC(=O)C(Cc2ccccc2)C(=O)N1)Nc1ccc(Br)cn1 (stereo not drawn) returned HIV TAR-Tat -1.3 and CDC25B CDK2 inh -0.08.
`CCc1ccc(-c2cc(C)no2)cc1S(=O)(=O)N1CCOc2ccc(Cl)cc21` gave HIV TAR-Tat -0.25.
For Cc1cc(=O)n(-c2ccccc2)n1C the results were HIV TAR-Tat 0.37.
Screening Cc1ccc(-c2nc(Cn3c(=O)cc(C(F)(F)F)c4c(C)nn(C)c43)c(C)o2)cc1 returned HIV TAR-Tat -0.46.
Screening Cc1cc(S(=O)(=O)Nc2ccc(F)c(Cl)c2)cc(C)c1F returned CDC25B CDK2 inh 0.13.
For O=C(CCCn1c(=O)c2cccn2c2cccnc21)Nc1cc(F)ccc1F the results were HIV TAR-Tat 1.7.
For O=C(NCc1ccccn1)c1cc2n(n1)C(C(F)(F)F)CC(c1ccco1)N2 (stereo not drawn) the results were HIV TAR-Tat -0.31 and CDC25B CDK2 inh 1.1.
`O=C(Nc1nccs1)C(NS(=O)(=O)c1cccc2nsnc12)c1ccccc1` (stereo not drawn) gave CDC25B CDK2 inh -2.2.
Screening CCC1CC(C)(c2csc(Nc3ccc(C)cc3)n2)OC1=O (stereo not drawn) returned HIV TAR-Tat 0.8 and CDC25B CDK2 inh -0.42.
For Cc1cc(C)cc(NC(=O)c2noc3c2CSc2ccccc2-3)c1 the results were HIV TAR-Tat 1.6 and CDC25B CDK2 inh 0.15.
`N#Cc1c(N)sc(=S)c2c1CCCC2` gave CDC25B CDK2 inh -1.4.
For Cc1cc2c(cc3c(=O)n(CCCC(=O)NCCN4CCCCC4C)nc(C)n32)o1 (stereo not drawn) the results were HIV TAR-Tat 0.15 and CDC25B CDK2 inh -0.86.
For COc1ccc(OC)c(NS(=O)(=O)c2ccc3oc(=O)c4ncn(C)c4c3c2)c1 the results were HIV TAR-Tat 1.9 and CDC25B CDK2 inh -0.43.
CC(=O)Oc1ccc2nc(-c3ccccc3F)oc(=O)c2c1 was read as HIV TAR-Tat -0.84 and CDC25B CDK2 inh -0.02.
Cc1cc(SCC(=O)c2ccccc2)n2nc(C)nc2n1 was read as HIV TAR-Tat 2.7 and CDC25B CDK2 inh -0.29.
Screening Clc1ccc(OCc2nc(-c3ccc4c(c3)ncn4C3CCCC3)no2)cc1 returned HIV TAR-Tat 0.84.
`COc1ccc(Nc2ncnc3onc(-c4ccccc4OC)c23)c(OC)c1` gave HIV TAR-Tat 2.2.
For c1cncc(CN2CCN(Cc3ccc4ccccc4c3)CC2)c1 the results were CDC25B CDK2 inh -0.55.
`CC1=C(C(=O)Nc2ccccn2)C(c2ccc(Br)cc2)n2nnnc2N1` (stereo not drawn) gave HIV TAR-Tat -4.8 and CDC25B CDK2 inh -0.38.
Cc1nnc(SCc2ccc(Cl)cc2)[nH]c1=O was read as CDC25B CDK2 inh -1.5.
O=C(NCCC1=CCCCC1)c1nnc(Cc2ccc3c(c2)OCO3)o1 was read as HIV TAR-Tat 1.1 and CDC25B CDK2 inh 0.23.
`O=c1[nH]nc(-c2ccc(Cl)cc2)c2c1Nc1nnnn1C2c1cccs1` (stereo not drawn) gave HIV TAR-Tat 0.76 and CDC25B CDK2 inh 1.3.
For CCOc1ccc(/C=C/c2nc(C#N)c(N3CCN(c4ccccc4)CC3)o2)cc1 the results were HIV TAR-Tat 0.26 and CDC25B CDK2 inh -0.45.
For N#C/C(=N\Nc1ccc(OC(F)(F)F)cc1)C(=O)c1ccsc1 the results were CDC25B CDK2 inh -0.06.
`CCOC(=O)C1=C(c2ccccc2)NC(SCC(=O)OC)=C(C#N)C1c1cccs1` (stereo not drawn) gave HIV TAR-Tat 2.8 and CDC25B CDK2 inh 0.33.
For Cc1cccc(CSc2nc(C)cc(=O)[nH]2)c1 the results were HIV TAR-Tat 1.1 and CDC25B CDK2 inh -2.1.
O=C(Cn1c(=O)oc2cc(Cl)ccc21)N1CCN(c2ccccc2)CC1 was read as HIV TAR-Tat 0.42.
`O=C(c1c(F)cccc1F)N1CCN(c2ccc3nnc(-c4ccc(F)cc4)n3n2)CC1` gave HIV TAR-Tat 3.3 and CDC25B CDK2 inh -1.1.
`COc1cccc(-c2cc(=O)c3cc(OC)ccc3o2)c1` gave HIV TAR-Tat -0.27.
Screening CC1Cn2cc(C(=O)N3CCc4ccccc43)c(=O)c3c(Cl)ccc(c32)O1 (stereo not drawn) returned HIV TAR-Tat 0.65.
`COc1ccc(NCc2ccc3cccc(O)c3n2)cc1Cl` gave HIV TAR-Tat 1.7.
Screening CN(C)c1ccc(C2CC(=O)NC(N)=N2)cc1 (stereo not drawn) returned HIV TAR-Tat 0.32 and CDC25B CDK2 inh -0.09.
`CCCCCNC(=O)c1cc2c(=O)n3ccccc3nc2n1C` gave HIV TAR-Tat 0.07.
For CC1CCCCN1CCn1cnc2c([nH]c3ccccc32)c1=O (stereo not drawn) the results were HIV TAR-Tat 3 and CDC25B CDK2 inh -0.62.
CCOC(=O)c1cc(NC(=O)NC2CCCCC2)c(C)nc1C was read as HIV TAR-Tat -0.42 and CDC25B CDK2 inh -1.3.
`Cc1c(C(=O)NCCC2=CCCCC2)oc2ccc(S(=O)(=O)N3CCC4(CC3)OCCO4)cc12` gave CDC25B CDK2 inh -0.59.
Screening CCOC(=O)N1CCN(S(=O)(=O)N2CCC(C(=O)O)CC2)CC1 returned HIV TAR-Tat 3.1.
`Cc1nc2sc(C(c3ccc(F)cc3)N3CCN(c4ccc(F)cc4)CC3)c(O)n2n1` (stereo not drawn) gave CDC25B CDK2 inh -0.53.
Screening CC(C)CC(=O)Nc1ccc2nc(SCc3cc(=O)n4nc(C5CC5)sc4n3)sc2c1 returned HIV TAR-Tat -0.34.
Screening O=C(Cn1ncc2c1-c1ccccc1OC2)N1CCN(c2ccccc2)CC1 returned HIV TAR-Tat 0.9 and CDC25B CDK2 inh -0.33.
O=C(NCc1cccnc1)c1noc2c1CSc1ccccc1-2 was read as HIV TAR-Tat 1.2 and CDC25B CDK2 inh -1.4.
`COc1cc2nc(CN3C(=O)c4ccccc4C3=O)oc(=O)c2cc1OC` gave CDC25B CDK2 inh -0.76.
`O=C(CCN1CCN(C(c2ccccc2)c2ccccc2)CC1)c1ccccc1` gave CDC25B CDK2 inh -1.1.
`CCOC(=O)C(C)Sc1ccc2nnc(-c3ccc(C)cc3)n2n1` (stereo not drawn) gave CDC25B CDK2 inh 0.19.
For CCOc1ccccc1-c1nc(COc2ccccc2-c2nnc(-c3ccccc3)o2)c(C)o1 the results were HIV TAR-Tat 1.1.
C=CCNC(=O)CSc1ncc(CO)n1Cc1ccc(F)cc1 was read as HIV TAR-Tat 1.2.
Screening CN1C(=O)C(C)(C)c2cc(S(=O)(=O)N(Cc3ccco3)C3CCCC3)ccc21 returned HIV TAR-Tat 1.4.
`CC(=O)OCC(=O)[C@@]12OC3(CCCC3)O[C@@H]1CC1C3CCC4=CC(=O)C=C[C@]4(C)[C@@]3(F)[C@@H](O)C[C@@]12C` (stereo partly drawn) gave HIV TAR-Tat -0.24.
CCOC(=O)Cc1csc(NC(=O)Nc2cn(CC(C)C)c(=O)c3ccccc23)n1 was read as HIV TAR-Tat -0.07.
For CC(=O)N1N=C(c2ccc(Br)cc2)OC1Cn1nc(C)cc1C (stereo not drawn) the results were HIV TAR-Tat 1.6.
c1cnc2ccc(-c3ccc4ncccc4c3)cc2c1 was read as HIV TAR-Tat 1.5 and CDC25B CDK2 inh -0.19.
`COc1cccc(C2C3=C(CC(C)(C)CC3=O)Nc3ccc4ccccc4c32)c1` (stereo not drawn) gave HIV TAR-Tat 0.13 and CDC25B CDK2 inh -0.97.
`O=C(O)C1Sc2[nH]c(=O)sc2C2c3cc(Cl)ccc3OC(=O)C12` (stereo not drawn) gave CDC25B CDK2 inh -0.33.
CCOc1ccccc1OCc1nn2c(C3COc4ccccc4O3)nnc2s1 (stereo not drawn) was read as HIV TAR-Tat 1.4 and CDC25B CDK2 inh 1.1.
`Oc1ccc(C2Oc3ccccc3C3CC(c4ccccc4O)=NN32)cc1` (stereo not drawn) gave HIV TAR-Tat -3 and CDC25B CDK2 inh -0.08.
Screening Cc1nnc2sc(-c3ccccc3F)nn12 returned HIV TAR-Tat -0.28 and CDC25B CDK2 inh -0.95.
For Cc1cccc(/C=C/c2nn3c(-c4ccoc4C)nnc3s2)c1 the results were HIV TAR-Tat 1.3 and CDC25B CDK2 inh -0.83.
`O=C(CSCc1cnn(-c2ccccc2)c1-n1cccc1)Nc1ccccc1Br` gave HIV TAR-Tat 0.2 and CDC25B CDK2 inh -1.4.
Screening COc1cc(CCC(C)=O)ccc1O returned HIV TAR-Tat 0.98.
Screening O=C1c2oc3ccc(F)cc3c(=O)c2C(c2ccc(O)cc2)N1Cc1ccccc1Cl (stereo not drawn) returned HIV TAR-Tat 0.27 and CDC25B CDK2 inh -0.53.
Screening COCCNC(=O)CN1c2ccccc2NC2=C(C(=O)CCC2)C1c1ccco1 (stereo not drawn) returned HIV TAR-Tat -1.3.
Screening COc1ccc(CNCc2ccc3c(c2)OCO3)cc1Br returned HIV TAR-Tat -0.33 and CDC25B CDK2 inh 2.7.

Reprinted at random: 2 entries already listed.
For Cc1cccc(/C=C/c2nn3c(-c4ccoc4C)nnc3s2)c1 the results were HIV TAR-Tat 1.3 and CDC25B CDK2 inh -0.83.
`O=C(O)C1Sc2[nH]c(=O)sc2C2c3cc(Cl)ccc3OC(=O)C12` (stereo not drawn) gave CDC25B CDK2 inh -0.33.

By substructure, the entries above containing an aryl thioether with sulfur outside any ring (nine)
Fc1ccccc1CNCCCSc1nnnn1-c1ccccc1 was read as HIV TAR-Tat 1.9 and CDC25B CDK2 inh -1.3.
COC(=O)c1c(C)oc(C)c1S(=O)(=O)Nc1ccccc1SCc1c(F)cccc1Cl was read as CDC25B CDK2 inh -0.63.
`COc1ccccc1-c1nnc(SCc2ccccc2Cl)o1` gave HIV TAR-Tat 2 and CDC25B CDK2 inh 2.
Cc1cc(SCC(=O)c2ccccc2)n2nc(C)nc2n1 was read as HIV TAR-Tat 2.7 and CDC25B CDK2 inh -0.29.
Cc1nnc(SCc2ccc(Cl)cc2)[nH]c1=O was read as CDC25B CDK2 inh -1.5.
For Cc1cccc(CSc2nc(C)cc(=O)[nH]2)c1 the results were HIV TAR-Tat 1.1 and CDC25B CDK2 inh -2.1.
Screening CC(C)CC(=O)Nc1ccc2nc(SCc3cc(=O)n4nc(C5CC5)sc4n3)sc2c1 returned HIV TAR-Tat -0.34.
`CCOC(=O)C(C)Sc1ccc2nnc(-c3ccc(C)cc3)n2n1` (stereo not drawn) gave CDC25B CDK2 inh 0.19.
C=CCNC(=O)CSc1ncc(CO)n1Cc1ccc(F)cc1 was read as HIV TAR-Tat 1.2.
